eIF4H FP inh: inhibitors of RNA binding by human eIF4H; Q15056; eIF4H fluorescence polarization binding assay; inhibition, % at 35 µM; 290,000 compounds, 0.94% hits; AID 2012;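 active = 50% or more with normal probe brightness, or confirmed in later tests; inconclusive = above 50% with abnormal brightness, or retests that disagree; inactive = below 50% or failed in later tests; about a fifth of its hits are not listed in these tables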;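 also: calls also rest on retests at 20 µM and on dose response follow-up; 0% = protein and probe with vehicle and 100% = probe without protein; strong numbers were not always called active; many hits fall short of the cut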
Env fusion inh: blocks HIV Env-driven cell-cell fusion. 360,000 compounds, 1.1% hits. AID 651610. HeLa-JRFL Env/CEM21 cell fusion, luciferase. inhibition, % at 12.3 µM;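 active = mean replicate inhibition score of at least 50 and every replicate individually at or above 50; inconclusive = only one of the two criteria met; inactive = mean below 50 and not all replicates reaching 50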;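 also: 0% = plate neutral controls and 100% = maraviroc near 300 nM; one replicate is shown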
Rce1 inh: inhibitors of yeast Ras-converting enzyme | Q03530 | yeast membranes, quenched prenylated peptide cleavage fluorescence | calls only | 290,000 compounds, 0.27% hits | AID 2563;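 active = fall in fluorescence gain of 50% or more versus controls, with final raw signal at or below 3038400; inconclusive = same 50% fall but final raw signal above 3038400; inactive = fall in fluorescence gain under 50%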;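 also: plate controls were neutral control wells for no effect and wells lacking membranes for full effect; tested at 10 µM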
Target sequence (Q03530 whole entry, looked up): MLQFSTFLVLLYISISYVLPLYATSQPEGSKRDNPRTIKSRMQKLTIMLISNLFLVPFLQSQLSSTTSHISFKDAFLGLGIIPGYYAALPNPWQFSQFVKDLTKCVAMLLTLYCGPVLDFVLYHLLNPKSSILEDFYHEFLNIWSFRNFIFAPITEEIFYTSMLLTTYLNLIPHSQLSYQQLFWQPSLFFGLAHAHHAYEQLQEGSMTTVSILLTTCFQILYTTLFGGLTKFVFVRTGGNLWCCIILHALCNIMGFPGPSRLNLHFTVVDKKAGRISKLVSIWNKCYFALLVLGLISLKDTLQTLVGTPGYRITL
PABP polyA inh: PABP-poly(A) binding inhibition; 290,000 compounds, 1% hits; PABP-poly(A) RNA binding, fluorescence polarization; inhibition, % at 35 µM; P11940;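 active = 50% or more with normal probe brightness, or confirmed in later tests; inconclusive = above 50% with abnormal brightness, or retests that disagree; inactive = below 50% or failed in later tests; about a fifth of its hits are not listed in these tables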;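 also: calls also rest on retests at 20 µM and on dose response follow-up; controls were probe without protein and protein plus probe with vehicle; some compounds called inactive have numbers as strong as hits; many hits fall short of the cut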
CSC inhib: cancer stem cell inhibition | cancer stem cell-like cells viability, luminescence | inhibition, % at 7.5 µM | 300,000 compounds, 1.1% hits | AID 2717;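 active = mean at 75% or more and at least half the replicates too; inconclusive = mean and replicates disagree; tested in HMLE shEcad cells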;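 also: 0% = median of negative and 100% = median of positive control wells; the first replicate is given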
Yeast UUG start: yeast start codon fidelity modulation | S. cerevisiae UUG-firefly luciferase reporter, luminescence/redox ratio | activity score, % at 18.7 µM | 350,000 compounds, 0.13% hits | AID 602363;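 active = replicate mean at a twofold rise or more, about +100% in these data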;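 also: firefly luciferase made from a UUG start codon reports start codon fidelity; reporter light over untreated wells divided by growth signal over untreated wells; some hits fall short of that in this replicate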
MT1-MMP act inh: MT1-MMP (human) activation inhibition. AID 651647. HT1080 RFP-PRO-GFP cells, GFP/RFP ratio fluorescence, overnight; percent of plate control window, DMSO zero. GFP/RFP ratio change, % at 20 µM. 360,000 compounds, 0.061% hits;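 active = GFP/RFP ratio change of at least 30% with cell ATP level not reduced by more than half and red fluorescence within 50% of control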; also: strong numbers were not always called active
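Test system: HT1080 RFP-PRO-GFP cells; Benchmarks: DMSO and RFP-L50D-GFP cell wells; Timing: cells overnight before dosing, compound overnight, 37 °C, 5% CO2; Compound: one 20 µM compound dose with 1% DMSO; Read-out: GFP/RFP fluorescence ratio.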
eIF4H FP inh retest: also measured in eIF4H FP inh; calls as there; inhibition, %; compound at 20 µM; confirmation average;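 mean of two retest wells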
PABP polyA inh retest: also measured in PABP polyA inh; calls as there; inhibition, %; compound at 20 µM; confirmation repeats;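 mean of two retest wells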
MT1-MMP act inh RFP: further read-out of MT1-MMP act inh, marked with its call; RFP signal change, %; measured here: RFP expression control read;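 0 = vehicle wells; hits needed this value within 50% of zero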
* hit, by the source's call; i = inactive; ? = inconclusive; nt = no result given. Random draw from the library; 3% or so of the library scored in one or more.

SMILES | eIF4H FP inh | Env fusion inh | Rce1 inh | PABP polyA inh | CSC inhib | Yeast UUG start | MT1-MMP act inh | MT1-MMP act inh RFP | others
COC(=O)C1=C(C)N(Cc2ccccc2)C(=NCCc2ccccn2)N[C@H]1c1cccc(F)c1 | 24* | -30 | i | 66* | -3 | -9 | -4 | -3 | eIF4H FP inh retest=50*;PABP polyA inh retest=107*
COc1ccc(C)cc1NC(=O)C1CCCN(S(=O)(=O)c2cnc[nH]2)C1 (stereo unspecified) | 4 | -29 | i | 5 | -10 | -20 | 0 | 3
CCc1ccc(-c2nc(CN3CCC(C(=O)NCCN(CC)c4ccccc4)CC3)c(C)o2)cc1 | 4 | 36 | i | -8 | 16 | -9 | 1 | -23
CC(C)n1c(SCC(=O)c2ccc3c(c2)OCCO3)nc2c1c(=O)n(C)c(=O)n2C | 4 | 3 | i | -5 | -6 | nt | nt | nt
O=C(O)c1cc(S(=O)(=O)NCc2ccco2)c(Cl)cc1Cl | -6 | nt | i | 12 | 4 | -21 | -4 | 1
C(=N\Nc1nc2ccccc2[nH]1)/c1cccc2cccnc12 | 10 | -140 | i | 1 | 100* | -21 | 16 | -5
COc1cc([N+](=O)[O-])cc(/C=N/NC(=O)CSc2ccccn2)c1O | 10 | -9 | nt | 3 | 2 | nt | 3 | 3
CCn1c(COc2cc(C)ccc2C(C)C)nnc1SCC(=O)Nc1nccs1 | 11 | 8 | i | 5 | 10 | nt | -4 | -1
CCOc1ccc(NC(=O)CN(C)C(=O)CCCOc2ccc(Cl)c(C)c2)cc1OCC | -3 | nt | i | -2 | nt | 14 | 1 | -3
O=S(=O)(c1ccccc1)N1CCN(C(=S)Nc2ccc(Br)cc2)CC1 | 9 | 15 | i | -1 | 7 | -17 | -2 | 0
CN(C)c1ccc(/C=C2/SC(=O)N(CCN=C3NS(=O)(=O)c4ccccc43)C2=O)cc1 | 22 | 1 | i | -2 | 1 | -6 | -8 | -2
CN(CC(=O)Nc1ccccc1N1CCCC1)S(=O)(=O)c1ccc(F)cc1 | nt | 7 | i | nt | -12 | -11 | -1 | 1
OCCN1CCN(CC#CCC(c2ccccc2)c2ccccc2)CC1 | 11 | 7 | i | -5 | 50 | -16 | -3 | -3
Cc1c(C(=O)OCC(=O)N2CC(=O)Nc3ccccc32)oc2ccccc12 | -13 | -58 | i | 3 | -8 | -9 | -3 | 0
COc1ccccc1NC(=O)c1ccc(S(=O)(=O)N2CCOCC2)cc1 | -9 | 4 | i | -7 | -4 | 11 | 3 | 0
CC(=O)c1ccc(-n2nnnc2SCC(=O)N2CCc3ccccc3C2)cc1 | -4 | nt | i | -7 | nt | -8 | -3 | -1
COc1ccc(CCNC(=O)C(=O)NCC2CCCN2S(=O)(=O)c2ccccc2)cc1OC (stereo unspecified) | nt | 17 | i | nt | 10 | 8 | -12 | 1
C=CCN1C(=O)N(c2ccc(Cl)cc2)C(=O)C1CC(=O)Nc1ccc(F)cc1 (stereo unspecified) | 2 | 28 | i | 2 | 10 | nt | 0 | 1
CCOc1ccccc1-c1cc(C(=O)N/N=C/c2ccc(O)c(OC)c2)c2ccccc2n1 | -5 | 14 | i | -3 | 9 | nt | 2 | -2
O=C(COC(=O)CCCCCN=C1NS(=O)(=O)c2ccccc21)Nc1ccc(Cl)c(Cl)c1 | 2 | 9 | i | 2 | 14 | nt | 0 | 2
CCOC(=O)Cc1ccc2sc(-c3ccccc3)nc2c1 | 2 | -8 | i | -11 | 16 | -45 | 3 | 1
O=C(c1cccnc1NCc1ccc(F)cc1)N1CCOCC1 | -2 | nt | i | -4 | -11 | -12 | -1 | 2
CCOc1ccc(S(=O)(=O)N2CCC(C(=O)NC3CC3)CC2)cc1C | -12 | -14 | i | 0 | -3 | -6 | 3 | 2
CCC(=O)N/N=C/c1ccc(-c2ccc([N+](=O)[O-])cc2)o1 | -1 | -22 | i | 7 | 4 | -14 | 2 | -1
Cc1ccc(S(=O)(=O)N2CCC(C(=O)Nc3nnc(C)s3)CC2)cc1 | -6 | -2 | i | 8 | nt | 0 | 0 | 2
The listing continues.
SMILES | eIF4H FP inh | Env fusion inh | Rce1 inh | PABP polyA inh | CSC inhib | Yeast UUG start | MT1-MMP act inh | MT1-MMP act inh RFP | others
O=[N+]([O-])c1ccc(S(=O)(=O)N2CCN(c3ccc(N4CCOCC4)nn3)CC2)cc1 | nt | -21 | i | nt | 53 | -21 | 0 | 0
COc1ccc(CCn2c(O)c(C=Nc3cccc(F)c3)c(=O)[nH]c2=O)cc1OC | ? | -17 | i | ? | nt | -9 | -10 | 2
Cc1cccc(NC(=O)C2(C)CC3c4ccccc4C2c2ccccc23)c1 (stereo unspecified) | -6 | nt | i | -1 | -5 | 8 | 9 | 1
Cc1ccc(NC(=S)/N=C(\N)Nc2nc(C)c3ccccc3n2)cc1C | -4 | 9 | i | 1 | 32 | -15 | -4 | -9
Cc1cccc(NS(=O)(=O)c2ccc([N+](=O)[O-])cc2)n1 | 7 | 6 | i | 8 | -7 | -7 | -3 | 0
CCN(CC)S(=O)(=O)c1ccc(OC)c(NC(=O)c2cc([N+](=O)[O-])ccc2Cl)c1 | 8 | ? | i | -4 | 9 | -7 | -14 | -10
COc1ccc2oc(C(=O)NCc3ccco3)c(C)c2c1 | -4 | -10 | i | 0 | nt | -24 | 0 | -1
COc1ccc(NC(=O)CN(C)S(=O)(=O)c2cnc[nH]2)cc1Cl | 0 | 2 | i | 11 | -6 | -13 | 0 | 4
COc1ccc(NC(=O)CSc2nncc(=O)n2N)cc1OC | 0 | 0 | i | 4 | -17 | -18 | 0 | 5
O=C(CN1CCN(c2ccccc2F)CC1)Nc1nnc(C(F)(F)F)s1 | -10 | 7 | i | 9 | 1 | nt | 5 | 8
COc1ccc(C2NC(=O)NC(C)=C2C(=O)OC2CCC(C)CC2)cc1 (stereo unspecified) | -13 | -15 | i | -4 | -9 | -6 | -1 | -8
COc1ccc(C)cc1NC(=O)C(OC(=O)c1cnccn1)c1ccccc1 (stereo unspecified) | nt | -50 | i | nt | -12 | -6 | -2 | 0
COC(=O)C1=C(C)N(Cc2ccccc2)C(=NCc2ccccc2)N[C@H]1c1ccccc1 | nt | -153 | nt | nt | 8 | 8 | -1 | 1
CC1CCCCC12NC(=S)N(c1ccccc1)N2 (stereo unspecified) | -9 | 0 | i | -4 | 1 | -21 | -3 | 3
CCOc1ccc(CC(C(N)=O)C(N)=O)cc1CN(C)C | 2 | nt | i | -3 | -12 | -16 | 0 | 0
COc1ccc(N2CCN(C(=O)CCC(=O)N3Cc4ccccc4Oc4ncccc43)CC2)cc1 | -2 | -1 | i | -7 | 30 | -13 | 5 | 2
CN1CCN(c2ccccc2NC(=O)c2ccc(OCc3ccccc3)cc2)CC1 | 8 | nt | nt | 10 | -7 | -7 | -1 | -1
CCc1ccc(OCC2Cn3c(nc4c3c(=O)[nH]c(=O)n4C)O2)cc1 (stereo unspecified) | 6 | 6 | i | 3 | -6 | -16 | 1 | -6
O=C(/C=C/c1cccs1)NCc1ccc2c(c1)OCO2 | -5 | 16 | i | 4 | 2 | 0 | 5 | 1
CC(Sc1nc(-c2ccc(F)cc2)cs1)C(=O)Nc1ccc(Cl)cn1 (stereo unspecified) | -7 | nt | i | -8 | 9 | nt | 3 | 0
CCC(C)c1ccc(NC(=S)N2CCN(S(C)(=O)=O)CC2)cc1 (stereo unspecified) | 0 | nt | i | -4 | -6 | -12 | 1 | 2
CCOC(=O)c1c(CNc2ccncc2)n(C)c2cc(Br)c(O)cc12 | -5 | 10 | i | -3 | 0 | nt | 6 | 4
CCN1CCN(c2ccc(NC(=O)c3ccc(F)cc3)cc2Cl)CC1 | -1 | -2 | i | 11 | 16 | nt | 0 | 5
COc1ccc(CNC(=O)C[C@H]2C(=O)N(C3CCCCC3)C[C@@H]2Cc2ccccc2)cc1 | -15 | -18 | i | 3 | -8 | -13 | 3 | -4
CCC(C)SCC(=O)Nc1ccc(S(=O)(=O)N2CCOCC2)cc1OC (stereo unspecified) | -12 | 0 | i | 1 | -11 | 6 | -2 | -2

2 entries picked at random from the list so far:
SMILES | eIF4H FP inh | Env fusion inh | Rce1 inh | PABP polyA inh | CSC inhib | Yeast UUG start | MT1-MMP act inh | MT1-MMP act inh RFP | others
CC(C)n1c(SCC(=O)c2ccc3c(c2)OCCO3)nc2c1c(=O)n(C)c(=O)n2C | 4 | 3 | i | -5 | -6 | nt | nt | nt
CCOc1ccc(S(=O)(=O)N2CCC(C(=O)NC3CC3)CC2)cc1C | -12 | -14 | i | 0 | -3 | -6 | 3 | 2

(continued)
SMILES | eIF4H FP inh | Env fusion inh | Rce1 inh | PABP polyA inh | CSC inhib | Yeast UUG start | MT1-MMP act inh | MT1-MMP act inh RFP | others
CCOC(=O)C1=C(C)NC2=C(C(=O)CCC2)C1c1cccs1 (stereo unspecified) | 5 | nt | i | -6 | -12 | -5 | 0 | 3
COc1ccc(N(CC(=O)NC(C)C)S(=O)(=O)c2ccc(NC(C)=O)cc2)cc1 | -5 | nt | i | -12 | -2 | -10 | 4 | 4
COc1cc(/C=N/NC(=O)c2ccncc2)ccc1OC(=O)c1cccc(Br)c1 | -3 | 1 | i | -5 | nt | -24 | 1 | 4
Cc1nc2sccn2c(=O)c1Cl | 2 | nt | i | 5 | nt | -13 | 2 | 4
COc1ccc(NS(=O)(=O)c2ccc(O)c(NS(=O)(=O)c3ccc(NC(C)=O)cc3)c2)cc1 | nt | nt | nt | nt | 10 | -3 | -2 | 4
CC(C)CN(CCC(=O)O)CC(C)C | 4 | -52 | i | 0 | 0 | -20 | -5 | 3
COc1ccc(NC(=O)COc2cccc(-n3cnnn3)c2)cc1Cl | nt | 1 | i | nt | -6 | -11 | -1 | 1
CCCS(=O)(=O)NC(=O)C1(C)CCCN(C(=O)c2ccnc(Cl)c2)C1 (stereo unspecified) | nt | -5 | nt | nt | nt | -11 | -1 | 7
CCNC(=O)CCSc1nc(C)cc(C)n1 | -4 | 23 | i | 22 | 11 | nt | -2 | 3
Cc1noc(C)c1COC(=O)CCC(=O)c1ccc(F)cc1 | 5 | nt | i | 6 | -22 | -19 | 5 | 6
C/C(=N\NC(=O)C(=O)Nc1cccc(Cl)c1)c1ccncc1 | -6 | nt | i | 7 | 36 | -2 | 3 | 5
O=c1c(S(=O)(=O)c2ccc(Cl)cc2)cn(Cc2ccccc2)c2ccc(F)cc12 | -1 | 10 | i | 1 | 9 | nt | 3 | 3

Part of the list above in order of number of heavy atoms, falling:
SMILES | eIF4H FP inh | Env fusion inh | Rce1 inh | PABP polyA inh | CSC inhib | Yeast UUG start | MT1-MMP act inh | MT1-MMP act inh RFP | others
COc1ccc(N(CC(=O)NC(C)C)S(=O)(=O)c2ccc(NC(C)=O)cc2)cc1 | -5 | nt | i | -12 | -2 | -10 | 4 | 4
CCCS(=O)(=O)NC(=O)C1(C)CCCN(C(=O)c2ccnc(Cl)c2)C1 (stereo unspecified) | nt | -5 | nt | nt | nt | -11 | -1 | 7
Cc1noc(C)c1COC(=O)CCC(=O)c1ccc(F)cc1 | 5 | nt | i | 6 | -22 | -19 | 5 | 6
CCNC(=O)CCSc1nc(C)cc(C)n1 | -4 | 23 | i | 22 | 11 | nt | -2 | 3
CC(C)CN(CCC(=O)O)CC(C)C | 4 | -52 | i | 0 | 0 | -20 | -5 | 3
Cc1nc2sccn2c(=O)c1Cl | 2 | nt | i | 5 | nt | -13 | 2 | 4
